A1 apoptosis 2 – blocks A1, raising caspase activity. MEF A1-2A-BIM cells, caspase-Glo luminescence, 3 h; percent of clofoctol response, DMSO zero. caspase activation, % (test concentration not listed). 24,000 tested, under 10 active; in the data active means caspase activation above about 5.9%;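 further: wells of about 30 µL received 50 nL stock; the first replicate is given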
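Material: A1-2A-BIM-expressing MEF cells. Buffer or medium: RPMI-1640 plus 10% FBS. Incubation: cells settled overnight, compound exposure 3 h at 37 °C, 5% CO2. Signal: Caspase-Glo 3/7 luminescence, 1 h at room temperature.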
An asterisk follows results filed as active. Only part of the results is shown, so the mix of outcomes need not match the whole.

SMILES	A1 apoptosis 2
COc1ccc(S(=O)(=O)N(C)C[C@H]2Oc3c(NC(=O)CCCCCC(=O)Nc4ccccc4N)cccc3C(=O)N([C@H](C)CO)C[C@@H]2C)cc1	0.3
C[C@@H]1CN([C@@H](C)CO)C(=O)c2cccc(N(C)C)c2O[C@@H]1CN(C)Cc1ccc(C(F)(F)F)cc1	-0.4
CN(C)c1ccc(/C=N/NC(=O)c2cccc(C(=O)NO)c2)cc1	-7.5
Cc1ccc(S(=O)(=O)Nc2ccc3c(c2)CC(=O)N([C@H](C)CO)C[C@H](C)[C@H](CN(C)S(=O)(=O)c2cccs2)O3)cc1	-0.7
Cc1noc(C)c1NC(=O)N(C)C[C@H]1OCCCC[C@@H](C)Oc2ccc(NC(=O)Cc3ccccc3)cc2C(=O)N([C@H](C)CO)C[C@H]1C	0.7
COc1ccc(NC(=O)Nc2cccc3c2O[C@H](CN(C)CC2CC2)[C@@H](C)CN([C@H](C)CO)C3=O)cc1	-0.3
COc1ccc(S(=O)(=O)Nc2ccc3c(c2)C(=O)N([C@@H](C)CO)C[C@@H](C)[C@H](CN(C)S(C)(=O)=O)O3)cc1	0.1
COc1ccc(NC(=O)N(C)C[C@@H]2OCCCC[C@@H](C)Oc3ccc(NS(=O)(=O)c4ccc(C)cc4)cc3C(=O)N([C@@H](C)CO)C[C@H]2C)cc1	2.2
C[C@H](CO)N1C[C@H](C)[C@@H](CN(C)S(=O)(=O)c2ccc(F)cc2)Oc2c(NC(=O)c3cnccn3)cccc2C1=O	0.0
C[C@H]1CN([C@@H](C)CO)C(=O)c2cc(NC(=O)Nc3cccc4ccccc34)ccc2O[C@H]1CN(C)S(=O)(=O)c1ccc(Cl)cc1	0.1
COc1ccc(NC(=O)O[C@H]2[C@H](OC(=O)Nc3ccc4c(c3)OCO4)[C@@H](OC(=O)Nc3ccc4c(c3)OCO4)[C@@H](OC)O[C@@H]2CO)cc1	0.1
COc1ccc(NC(=O)N(C)C[C@@H]2OCCCC[C@@H](C)Oc3ccc(NS(=O)(=O)c4cccs4)cc3C(=O)N([C@H](C)CO)C[C@H]2C)cc1	-0.1
CCCN(C)C[C@@H]1OCCCC[C@@H](C)Oc2ccc(NC(=O)C3CCCCC3)cc2C(=O)N([C@@H](C)CO)C[C@@H]1C	0.4
C[C@@H]1CN([C@H](C)CO)C(=O)c2cc(NC(=O)CCC(F)(F)F)ccc2O[C@@H]1CN(C)Cc1ccc(C(=O)O)cc1	-0.1
CC(C)NC(=O)N(C)C[C@H]1Oc2ccc(NC(=O)Nc3ccc4c(c3)OCO4)cc2CC(=O)N([C@H](C)CO)C[C@H]1C	1.4

Quoted at random: 4 compounds from above.
SMILES	A1 apoptosis 2
COc1ccc(NC(=O)O[C@H]2[C@H](OC(=O)Nc3ccc4c(c3)OCO4)[C@@H](OC(=O)Nc3ccc4c(c3)OCO4)[C@@H](OC)O[C@@H]2CO)cc1	0.1
COc1ccc(NC(=O)N(C)C[C@@H]2OCCCC[C@@H](C)Oc3ccc(NS(=O)(=O)c4cccs4)cc3C(=O)N([C@H](C)CO)C[C@H]2C)cc1	-0.1
C[C@@H]1CN([C@H](C)CO)C(=O)c2cc(NC(=O)CCC(F)(F)F)ccc2O[C@@H]1CN(C)Cc1ccc(C(=O)O)cc1	-0.1
COc1ccc(NC(=O)Nc2cccc3c2O[C@H](CN(C)CC2CC2)[C@@H](C)CN([C@H](C)CO)C3=O)cc1	-0.3

New compounds follow
SMILES	A1 apoptosis 2
C[C@H](CO)N1C[C@H](C)[C@@H](CN(C)C(=O)Nc2ccccc2)Oc2c(NS(=O)(=O)c3cccs3)cccc2C1=O	1.4
C[C@H](CO)N1C[C@H](C)[C@H](CN(C)Cc2ccccc2)OCCCC[C@H](C)Oc2ccc(NC(=O)CCCN(C)C)cc2C1=O	0.9
COc1ccc(S(=O)(=O)Nc2ccc3c(c2)C(=O)N([C@H](C)CO)C[C@@H](C)[C@H](CN(C)C(=O)c2ccncc2)OCCCC[C@@H](C)O3)cc1	0.3
C[C@H](CO)N1C[C@H](C)[C@H](CN(C)Cc2ccc3c(c2)OCO3)Oc2ccc(NS(=O)(=O)c3ccccc3)cc2C1=O	-1.3
C[C@H](CO)N1C[C@H](C)[C@H](CN(C)Cc2ccc(Oc3ccccc3)cc2)Oc2c(NS(C)(=O)=O)cccc2C1=O	1.7
O=C1CS(=O)(=O)C(c2ccccc2)N1c1ccc(Cl)cc1 (configuration not stated)	0.9
CC(C)NC(=O)Nc1ccc2c(c1)C(=O)N([C@H](C)CO)C[C@H](C)[C@H](CN(C)Cc1ccccc1)O2	-1.1
CNC[C@H]1Oc2c(NC(=O)Nc3ccccc3)cccc2C(=O)N([C@H](C)CO)C[C@@H]1C	-0.2
C[C@@H]1CN([C@@H](C)CO)C(=O)Cc2cc(NC(=O)Cc3cn(C)c4ccccc34)ccc2O[C@H]1CN(C)Cc1ccc(C(=O)O)cc1	-0.6
COc1ccc(S(=O)(=O)Nc2cccc3c2O[C@H](CN(C)Cc2ccc(Cl)c(Cl)c2)[C@@H](C)CN([C@@H](C)CO)C3=O)cc1	0.7
Cc1noc(C)c1NC(=O)Nc1ccc2c(c1)C(=O)N([C@H](C)CO)C[C@H](C)[C@@H](CN(C)S(=O)(=O)c1cn(C)cn1)O2	0.5
C[C@H](CO)N1C[C@H](C)[C@@H](CN(C)Cc2ccc(-c3ccccc3)cc2)Oc2ccc(NC(=O)Cc3cn(C)c4ccccc34)cc2C1=O	0.7
C[C@@H]1CN([C@H](C)CO)C(=O)CCCn2cc(nn2)CO[C@@H]1CN(C)S(=O)(=O)c1cccc(C#N)c1	-1.2
C[C@@H]1CCCCO[C@H](CN(C)C(=O)Nc2cccc3ccccc23)[C@@H](C)CN([C@H](C)CO)C(=O)c2cc(NC(=O)Nc3ccc(C(F)(F)F)cc3)ccc2O1	0.8
Cc1noc(C)c1NC(=O)Nc1ccc2c(c1)CC(=O)N([C@H](C)CO)C[C@@H](C)[C@@H](CN(C)C(=O)Nc1c(C)noc1C)O2	-0.8

3 compounds already listed, arranged by heavy-atom count, largest number first.
SMILES	A1 apoptosis 2
C[C@@H]1CCCCO[C@H](CN(C)C(=O)Nc2cccc3ccccc23)[C@@H](C)CN([C@H](C)CO)C(=O)c2cc(NC(=O)Nc3ccc(C(F)(F)F)cc3)ccc2O1	0.8
C[C@H](CO)N1C[C@H](C)[C@H](CN(C)Cc2ccccc2)OCCCC[C@H](C)Oc2ccc(NC(=O)CCCN(C)C)cc2C1=O	0.9
C[C@H](CO)N1C[C@H](C)[C@H](CN(C)Cc2ccc(Oc3ccccc3)cc2)Oc2c(NS(C)(=O)=O)cccc2C1=O	1.7

More results.
SMILES	A1 apoptosis 2
Cc1noc(C)c1NC(=O)N(C)C[C@@H]1Oc2ncc(C#Cc3ccc(C(F)(F)F)cc3)cc2C(=O)N([C@H](C)CO)C[C@@H]1C	-1.3
CC(C)NC(=O)N(C)C[C@H]1OCCCC[C@@H](C)Oc2ccc(NS(C)(=O)=O)cc2C(=O)N([C@@H](C)CO)C[C@@H]1C	0.3
C[C@H](CO)N1C[C@H](C)[C@H](CN(C)Cc2ccc(C(F)(F)F)cc2)Oc2c(NC(=O)c3ccncc3)cccc2C1=O	-0.5
COc1ccc(NC(=O)O[C@H](c2ccc(OC)c(O)c2)[C@@H](CCO)OC)cc1	0.7
COc1ccc(CN(C)C[C@H]2OCCCC[C@@H](C)Oc3ccc(NC(=O)C4CCCCC4)cc3C(=O)N([C@H](C)CO)C[C@H]2C)cc1	-0.5
C=CCNC(=O)[C@@H]1[C@H]2C(=O)O[C@H](c3ccccc3)[C@H](c3ccccc3)N2[C@H](c2ccc(O)cc2)[C@@]12C(=O)Nc1ccc(C#CCCO)cc12	-0.4
C[C@H]1CCCCO[C@@H](CN(C)Cc2ccc3c(c2)OCO3)[C@@H](C)CN([C@@H](C)CO)C(=O)c2cc(NC(=O)Nc3ccc(C(F)(F)F)cc3)ccc2O1	-1.1
COc1ccc(NC(=O)N(C)C[C@@H]2OCc3cnnn3CCCC(=O)N([C@H](C)CO)C[C@@H]2C)cc1	1.3
COc1ccc(S(=O)(=O)Nc2ccc3c(c2)C(=O)N([C@@H](C)CO)C[C@H](C)[C@H](CN(C)Cc2ccccc2)O3)cc1	-0.3
C[C@H]1CN([C@@H](C)CO)C(=O)c2cc(NS(=O)(=O)c3ccccc3)ccc2O[C@@H]1CN(C)Cc1ccc(C(F)(F)F)cc1	-0.7
C[C@H]1CN([C@@H](C)CO)C(=O)c2cc(NC(=O)NC3CCCCC3)ccc2O[C@H]1CN(C)S(=O)(=O)c1ccc(F)cc1	-0.8
C[C@H](CO)N1C[C@H](C)[C@H](CN(C)Cc2ccc(Oc3ccccc3)cc2)Oc2ccc(NS(=O)(=O)c3ccc(F)cc3)cc2C1=O	-0.3
Cc1noc(C)c1S(=O)(=O)N(C)C[C@H]1Oc2ccc(NC(=O)CCCCCC(=O)Nc3ccccc3N)cc2CC(=O)N([C@H](C)CO)C[C@@H]1C	0.2
C[C@@H]1CN([C@@H](C)CO)C(=O)CCCn2nncc2CO[C@H]1CN(C)C(=O)Nc1ccc(-c2cccs2)cc1	-0.3
COc1ccc(NC(=O)Nc2ccc3c(c2)CC(=O)N([C@@H](C)CO)C[C@@H](C)[C@@H](CN(C)Cc2ccc(-c4ccccc4)cc2)O3)cc1	0.9
CC(C)NC(=O)N(C)C[C@@H]1Oc2ccc(NC(=O)NC3CCCCC3)cc2CC(=O)N([C@@H](C)CO)C[C@@H]1C	1.2
C[C@H](CO)N1C[C@H](C)[C@H](CN(C)C(=O)NC2CCCCC2)Oc2ccc(NC(=O)Nc3ccccc3)cc2C1=O	-1.9
C[C@@H]1CN([C@H](C)CO)C(=O)Cc2cc(N(C)C)ccc2O[C@@H]1CN(C)C(=O)Nc1ccc(C(F)(F)F)cc1	0.9
C[C@@H]1CN([C@@H](C)CO)C(=O)c2cc(NC(=O)CCCN(C)C)ccc2O[C@H]1CN(C)S(=O)(=O)c1cn(C)cn1	1.0
C[C@H]1CN([C@@H](C)CO)C(=O)c2cc(NS(=O)(=O)c3ccc(Cl)cc3)ccc2O[C@H]1CN(C)Cc1ccc(-c2ccccc2)cc1	-0.9
C[C@@H]1CN([C@@H](C)CO)C(=O)c2cccc(NC(=O)c3cnccn3)c2O[C@@H]1CN(C)Cc1ccncc1	0.9
C[C@H]1CN([C@@H](C)CO)C(=O)c2cccc(NC(=O)c3cnccn3)c2O[C@@H]1CN(C)Cc1ccccc1	0.5
Cc1ccc(S(=O)(=O)Nc2cccc3c2O[C@@H](CN(C)C(=O)Nc2ccc(C(F)(F)F)cc2)[C@@H](C)CN([C@H](C)CO)C3=O)cc1	0.6
C/C=C/[C@H](CC(=O)N(CCO)Cc1ccccc1)[Si](C)(C)c1ccc(OC)cc1	-0.4
Cc1noc(C)c1S(=O)(=O)N(C)C[C@@H]1Oc2ccc(NS(=O)(=O)c3cn(C)cn3)cc2CC(=O)N([C@H](C)CO)C[C@H]1C	1.1
C[C@H](CO)N1C[C@H](C)[C@H](CN(C)Cc2ccccc2)Oc2ccc(NC(=O)c3ccncc3)cc2CC1=O	-0.9
COc1ccc(CN(C)C[C@@H]2OCCCC[C@H](C)Oc3ccc(NS(=O)(=O)c4ccc(F)cc4)cc3C(=O)N([C@@H](C)CO)C[C@H]2C)cc1	-1.5
C[C@@H]1CN([C@H](C)CO)C(=O)CCCn2nncc2CO[C@H]1CN(C)Cc1ccc2cccnc2c1	-1.1
C[C@@H]1CN([C@@H](C)CO)C(=O)CCCn2nncc2CO[C@@H]1CN(C)Cc1ccncc1	1.0
C[C@H](CO)N1C[C@H](C)[C@@H](CN(C)S(=O)(=O)c2cccs2)Oc2ccc(NC(=O)c3ccncc3)cc2C1=O	0.0

O=C(C1=C[C@H](C2CC2)C[C@H](OCCCCO)O1)N1CCOCC1
  A1 apoptosis 2 = 0.2
C[C@@H]1CCCCO[C@H](CN(C)S(=O)(=O)c2ccccc2)[C@@H](C)CN([C@@H](C)CO)C(=O)c2cc(NC(=O)CCC(F)(F)F)ccc2O1
  A1 apoptosis 2 = -1.5
C[C@H](CO)N1C[C@H](C)[C@H](CN(C)Cc2ccc(C(=O)O)cc2)Oc2c(NS(=O)(=O)c3cccs3)cccc2C1=O
  A1 apoptosis 2 = -0.5
C[C@@H]1CN([C@@H](C)CO)C(=O)c2cc(NC(=O)Nc3ccc(C(F)(F)F)cc3)ccc2O[C@@H](C)CCCCO[C@H]1CN(C)C
  A1 apoptosis 2 = 0.4
CNC[C@@H]1OCc2cnnn2CCCC(=O)N([C@H](C)CO)C[C@@H]1C
  A1 apoptosis 2 = -0.6
COc1ccc(CN(C)C[C@@H]2Oc3ccc(NC(=O)Cc4ccccc4)cc3C(=O)N([C@@H](C)CO)C[C@@H]2C)cc1
  A1 apoptosis 2 = 0.3
COC(=O)C1=C/c2ccccc2C(C2CC2)N(C)/C=C\1C(=O)OC (configuration not stated)
  A1 apoptosis 2 = 0.4
C[C@@H]1CN([C@H](C)CO)C(=O)Cc2cc(NC(=O)NC3CCCCC3)ccc2O[C@H]1CN(C)Cc1ccccc1
  A1 apoptosis 2 = -0.6
COc1ccc(S(=O)(=O)N(C)C[C@H]2OCCCC[C@@H](C)Oc3ccc(NC(=O)Nc4cccc5ccccc45)cc3C(=O)N([C@H](C)CO)C[C@@H]2C)cc1
  A1 apoptosis 2 = 0.0
Cc1noc(C)c1S(=O)(=O)Nc1ccc2c(c1)CC(=O)N([C@H](C)CO)C[C@H](C)[C@@H](CN(C)S(C)(=O)=O)O2
  A1 apoptosis 2 = 0.6
CC(C)NC(=O)N(C)C[C@H]1Oc2ccc(NS(=O)(=O)c3cn(C)cn3)cc2CC(=O)N([C@H](C)CO)C[C@H]1C
  A1 apoptosis 2 = 0.9
CC(C)NC(=O)Nc1cccc2c1O[C@@H](CN(C)S(=O)(=O)c1ccc(F)cc1)[C@H](C)CN([C@@H](C)CO)C2=O
  A1 apoptosis 2 = -0.2
C[C@@H]1CCCCO[C@H](CN(C)C(=O)Nc2ccccc2)[C@H](C)CN([C@@H](C)CO)C(=O)c2cc(NS(=O)(=O)c3cccs3)ccc2O1
  A1 apoptosis 2 = -0.5
CCCN(C)C[C@H]1OCCCC[C@H](C)Oc2ccc(NC(=O)c3ccccc3)cc2C(=O)N([C@@H](C)CO)C[C@H]1C
  A1 apoptosis 2 = -1.5
